Assay outcomes: PubChem BioAssay, Broad Institute
BJeLR viability: BJeLR cell viability loss, primary screen, luminescence, CellTiterGlo ATP. BJeLR fibroblasts viability, 48 h; HRASV12, hTERT and SV40 LT/ST transformed. viability loss activity score, % (test concentration not listed). 30,000 compounds, 0.64% hits. AID 2275, 2010; in the data active = viability loss activity score above about 50%; about a fifth of its hits are not listed in these tables;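 also: higher score means fewer live cells and less ATP luminescence; stock transfer was 50 or 100 nL into about 30 µL; 0% = vehicle wells and 100% = a reference killing control; one replicate is shown; the record names a cut of 85%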
A1 inhib: inducers of caspase activity in MEF A1-2A-BIM cells, primary screen, A1 inhibitor project, cell-based, CaspaseGlo luminescence. 21,000 compounds, 0.51% hits. caspase activation, % (concentration not given with the values). caspase-Glo luminescence, 3 h; percent of clofoctol signal, DMSO as zero;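 active = most replicate scores above 10, or exactly half above 10 with mean activity above 10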;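 also: effector caspase 3 and 7 activity cleaving a DEVD luciferin substrate; 50 nL library stock added to about 30 µL; numbers are from one replicate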
An asterisk follows results filed as active; · = no result given. These rows are one share of the data; rates above refer to the full screens.

Preview (3 entries):
SMILES	BJeLR viability	A1 inhib
CNC[C@@H]1Oc2ccc(NC(=O)CCN3CCOCC3)cc2C(=O)N([C@H](C)CO)C[C@H]1C	-2.9	-0.4
C[C@H](CO)N1C[C@H](C)[C@H](CN(C)S(C)(=O)=O)Oc2ccc(NC(=O)Nc3cccc4ccccc34)cc2C1=O	2.4	0.5
C[C@@H]1CN([C@H](C)CO)C(=O)c2cc(NC(=O)NC3CCCCC3)ccc2O[C@H]1CN(C)S(=O)(=O)c1ccc(Cl)cc1	-4.6	-0.1

Main list, previewed entries included:
SMILES	BJeLR viability	A1 inhib
CNC[C@@H]1Oc2ccc(NC(=O)CCN3CCOCC3)cc2C(=O)N([C@H](C)CO)C[C@H]1C	-2.9	-0.4
C[C@H](CO)N1C[C@H](C)[C@H](CN(C)S(C)(=O)=O)Oc2ccc(NC(=O)Nc3cccc4ccccc34)cc2C1=O	2.4	0.5
C[C@@H]1CN([C@H](C)CO)C(=O)c2cc(NC(=O)NC3CCCCC3)ccc2O[C@H]1CN(C)S(=O)(=O)c1ccc(Cl)cc1	-4.6	-0.1
Cc1cc(C)c2nc(NC(=O)c3ccc(C#N)cc3)sc2c1	1.1	-0.9
COc1ccc(S(=O)(=O)Nc2ccc3c(c2)C(=O)N([C@H](C)CO)C[C@H](C)[C@@H](CN(C)Cc2ccc(Cl)c(Cl)c2)O3)cc1	-5.7	-0.8
C[C@H](CO)N1C[C@H](C)[C@H](CN(C)S(C)(=O)=O)Oc2c(NS(=O)(=O)c3ccccc3)cccc2C1=O	2.6	·
COc1ccc(S(=O)(=O)N(C)C[C@@H]2Oc3ccc(NC(=O)NC4CCCCC4)cc3C(=O)N([C@@H](C)CO)C[C@H]2C)cc1	-4.5	-0.7
O=C1CC(c2ccc(F)cc2)CC(O)=C1C=NCCN1CCNCC1 (centres undefined)	6.5	-0.4
COc1ccc(NC(=O)CC2SC(=Nc3ccccc3)N(c3ccccc3)C2=O)cc1 (centres undefined)	-1.9	0.7
COC(=O)c1ccc(S(=O)(=O)NC(C)(C)C)n1C	1.4	·
Cc1cc(C(=O)Nc2cccc3c2O[C@@H](CN(C)C(=O)Nc2ccc(F)cc2)[C@H](C)CN([C@H](C)CO)C3=O)n(C)n1	0.7	·
C[C@@H]1CC[C@]2(C(=O)O)CC[C@]3(C(=O)O)C(=CCC4[C@@]5(C)CC[C@H](O[C@@H]6O[C@@H](C)[C@H](O[C@@H]7O[C@H](CO)[C@@H](O)[C@H](O)[C@H]7O)[C@@H](O)[C@H]6O)C(C)(C)C5CC[C@]43C)C2[C@H]1C (some centres undefined)	-5.1	0.4
C[C@@H]1CN([C@@H](C)CO)C(=O)c2cc(NC(=O)Cn3cnnn3)ccc2O[C@H]1CN(C)S(=O)(=O)c1ccccc1	-2.7	0.3
CNC[C@@H]1Oc2ccc(NC(=O)NC(C)C)cc2C(=O)N([C@H](C)CO)C[C@H]1C	-0.2	0.7
CN(C(=O)c1ccn[nH]1)C1CC(C)(C)N(C)C(C)(C)C1	2.9	0.1
O=C(CCN1C(=O)c2ccccc2C1=O)NCc1ccco1	4.7	·
C[C@H](CO)N1C[C@H](C)[C@H](CN(C)S(=O)(=O)c2cccs2)Oc2ccc(NS(=O)(=O)c3ccccc3)cc2C1=O	2.3	-0.1
COC(=O)c1c(C)c(=O)[nH]c2ccccc12	2.5	0.8
Cc1nn2c(-c3ccc(NC(=O)c4ccccc4Cl)cc3)nnc2c2ccccc12	1.7	·
NC(=O)CSc1nc2c(c(=O)n1-c1ccccc1)C1=C(CCC1)C2	-2.0	1.4
COc1ccc(CN(C)C[C@H]2Oc3ccc(NC(=O)NC4CCCCC4)cc3C(=O)N([C@H](C)CO)C[C@H]2C)cc1	-2.5	1.0
O=C(CSc1nc2nccnc2c(=O)n1Cc1ccccc1)Nc1ccccc1C(F)(F)F	-1.5	-0.1
C[C@@H]1CN([C@@H](C)CO)C(=O)c2cccc(NC(=O)C3CCOCC3)c2O[C@@H]1CN(C)S(=O)(=O)c1cccs1	0.2	·
C[C@H]1CN([C@@H](C)CO)C(=O)c2cccc(NC(=O)Nc3ccccc3)c2O[C@@H]1CN(C)Cc1ccc(Cl)c(Cl)c1	2.5	·
COc1ccc2oc(=Nc3ccc(C(=O)O)cc3)c(C(=O)NCc3ccccc3)cc2c1	-0.1	0.3
COc1ccc(CN(C)C[C@H]2Oc3ccc(NC(=O)Nc4cccc5ccccc45)cc3C(=O)N([C@H](C)CO)C[C@@H]2C)cc1	0.4	0.1
C[C@H]1CN([C@@H](C)CO)C(=O)c2cccc(NC(=O)NC3CCCCC3)c2O[C@H]1CN(C)C(=O)Nc1ccc(F)cc1	2.6	·
O=c1[nH]cnc2c1sc(=S)n2-c1ccccc1	-3.7	-0.2
C[C@@H]1CN([C@H](C)CO)C(=O)c2cccc(NC(=O)C3CCOCC3)c2O[C@@H]1CN(C)S(C)(=O)=O	5.4	·
Cc1noc(C)c1NC(=O)N(C)C[C@H]1Oc2ccc(NC(=O)Nc3ccc4c(c3)OCO4)cc2C(=O)N([C@H](C)CO)C[C@H]1C	-0.5	0.9
Cc1noc(C)c1NC(=O)N(C)C[C@@H]1Oc2c(NC(=O)c3ccc(-c4nccs4)cc3)cccc2C(=O)N([C@H](C)CO)C[C@@H]1C	3.1	·
CC(C)(O[C@@H]1O[C@H](CO)[C@@H](O)[C@H](O)[C@H]1O)[C@@H]1Oc2cc3oc(=O)ccc3cc2[C@H]1O	4.6	-0.4
O=C(NCc1ccc2c(c1)OCO2)C1(S(=O)(=O)c2ccc(Cl)cc2)CC1	-7.1	·
COc1ccc(S(=O)(=O)N(C)C[C@H]2Oc3ccc(NS(=O)(=O)c4cccs4)cc3C(=O)N([C@@H](C)CO)C[C@H]2C)cc1	2.4	0.6
C[C@@H]1CN([C@@H](C)CO)C(=O)c2cc(NC(=O)Cc3cn(C)c4ccccc34)ccc2O[C@H]1CN(C)Cc1ccc(C(F)(F)F)cc1	-1.8	0.9
O=C(Cc1cccc(C(F)(F)F)c1)Nc1ccccc1	-2.8	·
C[C@H]1CN([C@@H](C)CO)C(=O)c2cccc(NC(=O)Nc3ccc(F)cc3)c2O[C@@H]1CN(C)S(=O)(=O)c1ccccc1	1.7	·
CC(C)NC(=O)N(C)C[C@@H]1Oc2ccc(NC(=O)C3CC3)cc2C(=O)N([C@@H](C)CO)C[C@H]1C	-1.9	0.0
C[C@@H]1CN([C@@H](C)CO)C(=O)c2cccc(NC(=O)Nc3ccccc3)c2O[C@@H]1CN(C)Cc1ccc(Oc2ccccc2)cc1	-5.3	·
COc1ccc(NC(=O)N(C)C[C@H]2Oc3c(NC(=O)Nc4ccc5c(c4)OCO5)cccc3C(=O)N([C@H](C)CO)C[C@H]2C)cc1	-5.8	·
COc1ccc(S(=O)(=O)N(C)C[C@H]2Oc3c(NS(=O)(=O)c4c(C)noc4C)cccc3C(=O)N([C@H](C)CO)C[C@H]2C)cc1	-3.4	·
C[C@H](CO)N1C[C@H](C)[C@H](CN(C)Cc2ccc(C(F)(F)F)cc2)Oc2c(NC(=O)Nc3ccc4c(c3)OCO4)cccc2C1=O	2.6	·
C[C@H]1CN([C@@H](C)CO)C(=O)c2cc(NS(=O)(=O)c3cccs3)ccc2O[C@H]1CN(C)C	-2.3	-0.5
S=c1[nH]c(=S)c2cnc(N3CCOCC3)nc2[nH]1	9.2	-0.1
CCOC(=O)C1CCN(C(=O)COc2ccccc2)CC1	3.5	0.7
COC(=O)CCc1[nH]c2ccccc2c1Sc1ccccc1	-0.7	0.4
CCCNC(=O)C1CC(c2ccc(OC)cc2)=NO1 (centres undefined)	0.2	·
Cc1ccccc1NC(=O)C1CC(O)CN1C(=O)OCc1ccccc1 (centres undefined)	-0.1	1.4
C[C@H](CO)N1C[C@H](C)[C@H](CN(C)S(=O)(=O)c2ccccc2)Oc2ccc(NS(C)(=O)=O)cc2C1=O	-1.4	0.5
O=C(NCc1ccc(-c2csnn2)cc1)c1cc(Cl)cc(Cl)c1	-1.7	0.5
C[C@@H]1CN([C@@H](C)CO)C(=O)c2cc(NS(=O)(=O)c3ccc(F)cc3)ccc2O[C@@H]1CN(C)CC1CCCCC1	2.7	-0.8
CNC[C@H]1Oc2ccc(NS(=O)(=O)c3cn(C)cn3)cc2C(=O)N([C@@H](C)CO)C[C@H]1C	2.9	-0.2
C=C1C(=O)O[C@@H]2C3O[C@]3(C)CC/C=C(/C)CC[C@@H]12 (some centres undefined)	7.4	-0.7
COc1cccc(NC(=O)CSc2ncnc3ccccc23)c1	1.9	0.3
CC(=O)N1CCc2cc(NC(=S)NCc3cccs3)ccc21	-8.1	0.6
C[C@H](CO)N1C[C@H](C)[C@@H](CN(C)S(C)(=O)=O)Oc2c(NC(=O)c3cnccn3)cccc2C1=O	-4.7	·
C=C1C(=O)O[C@@H]2/C=C(/CO[C@@H]3O[C@H](CO)[C@@H](O)[C@H](O)[C@H]3O)CC/C=C3\C[C@H](OC3=O)[C@@H]12	0.2	0.0
N#C/C(=C\c1cc(Cl)cc(Cl)c1)c1cccnc1	-2.2	0.2
C=CCOC(=O)C1C(c2ccccc2)c2c([nH][nH]c2=O)CC1(C)O (centres undefined)	-5.1	·
CC(=O)Nc1ccc(Br)cc1	-1.6	-0.5

Next records.
SMILES	BJeLR viability	A1 inhib
Cc1c(C(=O)NCc2ccccc2)oc2ccc(S(=O)(=O)N(C)C3CCCCC3)cc12	5.4	·
COc1ccc2c(c1)CCc1sc(NC(=O)c3cc(OC)c(OC)c(OC)c3)nc1-2	-3.2	·
C[C@H]1CN([C@@H](C)CO)C(=O)c2cccc(NS(=O)(=O)c3ccc(F)cc3)c2O[C@@H]1CN(C)C(=O)Nc1ccc(F)cc1	1.1	·
C[C@H](CO)N1C[C@H](C)[C@@H](CN(C)C(=O)Nc2cccc3ccccc23)Oc2ccc(NC(=O)CCC(F)(F)F)cc2C1=O	-1.7	0.4
COc1ccc(NC(=O)N(C)C[C@H]2Oc3ccc(NC(=O)Nc4ccc(C(F)(F)F)cc4)cc3C(=O)N([C@H](C)CO)C[C@@H]2C)cc1	-0.1	1.2
CC(=O)Nc1ccc(S(=O)(=O)N2C(=O)c3cccc4cccc2c34)cc1	-2.4	·
C[C@H]1CN([C@@H](C)CO)C(=O)c2cc(NC(=O)C3CC3)ccc2O[C@@H]1CN(C)C(=O)Nc1ccccc1	-4.2	-0.4
CCN(CC)C(=O)c1cccc(OC)c1	-2.8	0.9
C[C@H]1CN([C@@H](C)CO)C(=O)c2cccc(NS(C)(=O)=O)c2O[C@@H]1CN(C)Cc1ccccc1	8.4	·
CC(=O)OC1=C(C(=O)c2ccccc2)N(C)S(=O)(=O)c2ccccc21	6.7	·
O=C1/C(=C/N2CCCCC2)SC(=S)N1c1ccc(F)cc1	-3.4	0.1
COc1cccc(-n2cc(C(=O)N(CC(C)C)CC(C)C)c3ccccc3c2=O)c1	-4.0	-2.3
COc1ccc2[nH]c3c(=O)n(Cc4ccc(C(=O)NC5CC5)cc4)c(=S)[nH]c3c2c1	-4.5	-0.2
C[C@@H]1CN([C@H](C)CO)C(=O)c2cc(NS(=O)(=O)c3ccc(Cl)cc3)ccc2O[C@@H]1CN(C)Cc1ccccc1	-1.8	-1.0
COc1ccc(S(=O)(=O)Nc2cccc3c2O[C@H](CN(C)C(=O)NC2CCCCC2)[C@H](C)CN([C@H](C)CO)C3=O)cc1	-1.0	·
COc1ccc(NC(=O)N(C)C[C@H]2Oc3c(NC(=O)c4cnccn4)cccc3C(=O)N([C@H](C)CO)C[C@H]2C)cc1	-6.8	·
Cc1cc(=O)oc2n[nH]c(CSc3ccc(Cl)cc3)c12	2.0	-0.7
CCc1ccc(/C=C2/C(=O)N(C3CCCCC3)C(=S)N2C)cc1	2.7	-0.1
Cc1ccc(S(=O)(=O)Nc2ccc3c(c2)C(=O)N([C@H](C)CO)C[C@@H](C)[C@H](CN(C)C(=O)Nc2ccc(F)cc2)O3)cc1	0.8	1.0
Cc1ccc(S(=O)(=O)N(C)C[C@@H]2Oc3c(NS(=O)(=O)c4ccc(F)cc4)cccc3C(=O)N([C@@H](C)CO)C[C@H]2C)cc1	12	·

Reformatted in markdown: entries from further up
| compound | BJeLR viability | A1 inhib |
| --- | --- | --- |
| CC(=O)Nc1ccc(S(=O)(=O)N2C(=O)c3cccc4cccc2c34)cc1 | -2.4 | · |
| C[C@H]1CN([C@@H](C)CO)C(=O)c2cc(NC(=O)C3CC3)ccc2O[C@@H]1CN(C)C(=O)Nc1ccccc1 | -4.2 | -0.4 |
| CCN(CC)C(=O)c1cccc(OC)c1 | -2.8 | 0.9 |
| C[C@H]1CN([C@@H](C)CO)C(=O)c2cccc(NS(C)(=O)=O)c2O[C@@H]1CN(C)Cc1ccccc1 | 8.4 | · |

Continuation:
SMILES	BJeLR viability	A1 inhib
CCSC1=NSC2=NC(=O)/C(=C\c3ccc(OC(=O)c4ccco4)c(Cl)c3)C(=N)N12	-2.8	·
c1ccc(CN2CN=C(Nc3nc4ccccc4o3)NC2)cc1	4.6	1.2
COc1ccc(NC(=O)N(C)C[C@@H]2Oc3c(NC(=O)Nc4ccc(C(F)(F)F)cc4)cccc3C(=O)N([C@@H](C)CO)C[C@@H]2C)cc1	-7.4	·
C[C@H](CO)N1C[C@H](C)[C@H](CN(C)C(=O)Nc2ccc3c(c2)OCO3)Oc2c(NS(=O)(=O)c3cn(C)cn3)cccc2C1=O	-4.0	·
CCN(Cc1ccccc1)C(=O)Cn1c(=O)n(-c2cccc(OC)c2)c(=O)c2sccc21	-0.5	·
COc1ccc(NC(=O)N(C)C[C@@H]2Oc3ccc(NC(=O)CCCN(C)C)cc3C(=O)N([C@@H](C)CO)C[C@H]2C)cc1	5.5	0.3
CCc1nn(Cc2ccccc2)c(=O)c2cc3cc(C)ccc3n12	-7.2	0.4
Cc1ccc(S(=O)(=O)Nc2cccc3c2O[C@@H](CN(C)C(=O)NC(C)C)[C@H](C)CN([C@H](C)CO)C3=O)cc1	-3.1	·
